Compound activity from PubChem BioAssay.
Cruzain Triton: blocks cruzain activity in presence of Triton detergent | P25779 | purified cruzain, Z-FR-AMC fluorescence, 0.01% Triton | Potency, µM, inactives show max response, negative = inhibition, most hits filed as inhibitors | actives 0.43% (n = 200,000) | AID 1478; active = well fitted curve in the direction sought with a large enough effect; inconclusive = small, poorly fitted or top-dose-only effect, or another doubt; inactive = no such curve, though single readings can be large; an effect the other way counts as inactive or inconclusive;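 note: plate controls were neutral wells for no effect and buffer without enzyme for full effect; nearly all actives have a fitted effect of over 40% in size; top concentration of the series not given in the record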
Target sequence (P25779 123-467 limits assumed): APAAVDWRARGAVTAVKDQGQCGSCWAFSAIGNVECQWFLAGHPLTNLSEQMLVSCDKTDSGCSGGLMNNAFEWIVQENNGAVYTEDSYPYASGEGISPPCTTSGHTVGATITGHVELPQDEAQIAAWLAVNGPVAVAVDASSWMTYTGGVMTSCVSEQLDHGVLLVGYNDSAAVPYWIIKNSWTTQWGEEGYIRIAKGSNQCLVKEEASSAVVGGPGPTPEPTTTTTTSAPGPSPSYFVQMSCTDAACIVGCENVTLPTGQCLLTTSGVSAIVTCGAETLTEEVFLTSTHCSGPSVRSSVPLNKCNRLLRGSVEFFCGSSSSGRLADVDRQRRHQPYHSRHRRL
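15 min RT preincubation of 1.5 nM cruzain with compound, then 2 uM Z-FR-AMC added; kinetic AMC fluorescence, 60 s delta. Triton X-100 0.01%, pH 5.5.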
SARS PLpro yeast: inhibitors of SARS-CoV papain-like protease in yeast; S. cerevisiae expressing SARS-CoV PLpro, growth rescue; control for the full effect not named in the record; Potency, µM (highest dose often 32.9 µM), inactives show top-dose activity, positive = growth rescue; actives 0.19% (n = 330,000); AID 485353; note: 0% is about no effect; nearly all actives have a fitted effect of over 55% in size; growth read by luminescence after 48 h
Lassa entry inh: Lassa virus entry inhibition; Lassa virus pseudotype entry inhibition, cell reporter; control for the full effect not named in the record; Potency, µM (top dose mostly 37.9 µM), for inactives: at the highest dose activity change, negative = inhibition, actives largely listed as inhibitors; actives 1.2% (n = 300,000); AID 540256; active means well fitted inhibition curve with a large enough effect; inconclusive means small, poorly fitted or top-dose-only effect, or effect the other way; inactive means flat fitted curve, though single readings scatter; tested in HEK293 cells; note: % is set by controls: 0 for no effect and ±100 for the full control effect; nearly all actives have a fitted effect of over 50% in size; luciferase read-out
2A StopGo: FMDV 2A StopGo reporter, luciferase signal; human cells with a luciferase reporter of 2A StopGo recoding; control for the full effect not named in the record; Potency, µM (top dose mostly 57.9 µM), inactives show at the top dose signal change, negative = less light; AID 1159524; actives 1.2% (n = 410,000); active = well fitted falling curve with a large enough effect; inconclusive = small, poorly fitted or top-dose-only effect; inactive = no such curve, though single readings can be large or run the other way; tested in HEK293T cells; note: % is set by controls: 0 for no effect and ±100 for the full control effect; nearly all actives have a fitted effect of over 45% in size; luciferase light after 4 h
NS1 inh: blocks influenza NS1 protein function | Potency, µM (titrated, usually from 46.1 µM), for the others: top-dose activity, positive = more growth | S. cerevisiae slowed by influenza A NS1, growth recovery by OD600 | actives 0.4% (n = 270,000) | AID 2326; note: actives are rising curves; nearly all actives have a fitted effect of over 50% in size
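A cell-based growth assay was used: compounds that relieve NS1-induced slow growth of budding yeast raise OD600. Assay medium was yeast nitrogen base with ammonium sulphate and -URA supplement, pH 6.0, with 2% galactose.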
Cruzain noTriton: blocks cruzain activity in detergent-free assay; purified cruzain, Z-FR-AMC fluorescence, no detergent; Potency, µM, inactives show max response, negative = inhibition, hits mostly inhibitors; actives 2.3% (n = 200,000); AID 1476; active = well fitted curve in the direction sought with a large enough effect; inconclusive = small, poorly fitted or top-dose-only effect, or another doubt; inactive = no such curve, though single readings can be large; an effect the other way counts as inactive or inconclusive;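 note: plate controls were enzyme without inhibitor for no effect and buffer without enzyme for full effect; nearly all actives have a fitted effect of over 40% in size; top concentration of the series not given in the record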
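Detergent-free condition (0.00005% Triton X-100) in acetate buffer pH 5.5 with DTT. 1.5 nM enzyme and compound were pre-mixed 15 min, then 2 uM Z-FR-AMC substrate added; reaction progress from fluorescence change between first and third reads (60 s).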
MARV entry inh: inhibitors of Marburg virus binding or cell entry. Marburg virus pseudotyped entry inhibition, cell reporter; control for the full effect not named in the record; about a third of the inactives were read at about 46 µM. Potency, µM (doses to about 37.8 µM), without a hit: top-dose activity change, negative = inhibition, usual class: inhibitors. actives 1.8% (n = 300,000). AID 540276; active = well fitted inhibition curve with a large enough effect; inconclusive = small, poorly fitted or top-dose-only effect, or effect the other way; inactive = flat fitted curve, though single readings scatter; tested in HEK293 cells; about a fifth of its hits are not listed in these tables; note: % is set by controls: 0 for no effect and ±100 for the full control effect; luciferase read-out
RE007 growth inh: less growth of the S. pombe RE007 Vpr strain; AID 651644; Potency, µM (doses to about 92.2 µM), for inactives: at the top dose activity change, negative = less growth; actives 0.21% (n = 360,000); S. pombe RE007 Vpr strain, BacTiter-Glo ATP luminescence, 24 h; control for the full effect not named in the record; active = well fitted falling curve with a large enough effect; inconclusive = small, poorly fitted or top-dose-only effect; inactive = no such curve, though single readings can be large or run the other way;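 note: % is set by controls: 0 for no effect and ±100 for the full control effect; nearly all actives have a fitted effect of over 50% in size; the assay follows cell death caused by Vpr and the record does not say whether a fall means rescue or toxicity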
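Fission yeast strain RE007, carrying one chromosomally integrated HIV-1 vpr copy, was seeded at OD 0.01 in PMG+AL medium with 23 nL pinned compound. After 24 h at 30 °C and 99% humidity, viability was read by BacTiter-Glo luminescence.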
* hit, by the source's call; ? = inconclusive; nt = not tested or not shown; & = joins results of further samples; [ ] = another dose, or the depositor's remark. Unless noted, calls come from the whole dose curve; as a rule, active means well fitted rising curve with a large enough effect; inconclusive means small, poorly fitted or top-dose-only effect; inactive means no such curve, though single readings can be large or run the other way. Potency is the fitted concentration of half-maximal effect.

SMILES | Cruzain Triton | SARS PLpro yeast | Lassa entry inh | 2A StopGo | NS1 inh | Cruzain noTriton | MARV entry inh | RE007 growth inh
OCCC1CN(CC2CCCCC2)CCN1CC1CCCCC1 (stereo not drawn) | nt | 1.7% | ? | -21.4% | 11.0% | nt | -41.5% | -6.5%
COc1ccc(-n2nc(C(=O)NCC(=O)N3CCOCC3)c3ccccc3c2=O)c(OC)c1 | nt | -1.5% | -3.3%[46.1 µM] | -0.3% | 2.3% | nt | 12.9%[46.1 µM] | -2.4%
CCc1ccccc1NC(=O)CCc1c(C)nn(-c2ccc(N3CCOCC3)nn2)c1C | -0.8% | 15.3% | 6.0%[46.1 µM] | -18.8%&-3.6% | -7.0% | -18.0% | nt | 3.4%
COc1ccc(C2CC(C(F)(F)F)n3ncc(C(=O)O)c3N2)cc1OC (stereo not drawn) | 4.2% | 1.8% | -0.9% | -13.4% | ? | -7.4% | 13.7% | 27.1%
Cc1c(N2C(=O)c3cccc4cccc(c34)C2=O)c(=O)n(-c2ccccc2)n1C | 6.1% | nt | -15.3% | -13.6% | 20.4% | 8.7% | -5.1% | -0.2%
Cc1ccc(-n2c(=S)[nH]c3nc4c(cc3c2=O)COC(C)(C)C4)cc1 | -3.4% | 17.3% | 3.1% | -13.5% | 0.6% | ? | ? | 5.4%
CC(C)c1ccc(OCCCCCN2CCOCC2)cc1 | nt | -3.2% | nt | 15.5% | 2.6% | nt | nt | -1.8%
C/C(CC(=O)Nc1ccc(Cl)cc1Cl)=N\NC(N)=S | 10µM* | 1.9% | -13.9% | -12.9% | ? | 7.94µM* | -5.0% | 4.4%
COc1cccc(/C(C)=N/NC(=O)c2cc(-c3cccnc3)nc3ccccc23)c1 | -4.3% | 18.1% | -13.2% | ? | -3.9% | -6.5% | 6.0% | -8.0%
Cc1ccc(N2CCN(C(=O)Nc3cccc([N+](=O)[O-])c3)CC2C)cc1 (stereo not drawn) | nt | -2.8% | ? | ? | -7.3% | nt | ? | 4.3%
COc1ccc(Cn2nnnc2C(c2ccccn2)N2CCN(c3cc(Cl)ccc3C)CC2)cc1 (stereo not drawn) | 0.1% | -6.8% | ? | nt | -5.1% | -2.9% | ? | 6.3%
Cc1nn2cc(-c3ccccc3)nc2[nH]c1=O | -5.2% | -8.3% | 11.5% | 0.0% | -2.2% | 4.9% | 3.8% | -8.6%
N#Cc1nc(-c2ccc(OCc3ccccc3)cc2)oc1NCCN1CCOCC1 | -17.7% | -1.7% | nt | nt | nt | ? | -6.2% | nt
C=CCCC1(C)C(=O)N(c2ccccc2)c2ccccc21 (stereo not drawn) | -5.2% | -13.2% | 17.3% | -29.4% | -22.9% | -0.6% | ? | -12.4%
CCCN1CCN(C(=O)Cn2nc(C)n3c(cc4sccc43)c2=O)CC1 | nt | 2.1% | nt | -14.9% | 5.9% | nt | nt | 4.1%
CCOC(=O)Cc1cnc(NC(=O)Cn2nnc(-c3ccc(OCC)cc3)n2)s1 | -8.0% | 5.4% | -1.5% | ? | -8.9% | 0.8% | ? | -1.1%
CCc1ccccc1-n1nnnc1-c1cnccc1C(F)(F)F | nt | 0.3% | -3.0%[46.1 µM] | 16.9% | 4.3% | nt | ? | -2.0%
CCOc1ccc(C(=O)CN2CCN(S(=O)(=O)c3ccc(Br)cc3)CC2)cc1 | -1.3% | -7.4% | -18.5% | -27.8% | -113.2% | -0.7% | -11.7% | 5.2%
C=C(C)CN(CC)C(=O)CCc1nnc(CCc2c[nH]c3ccccc23)o1 | nt | -3.2% | ? | 0.0% | 0.7% | nt | -27.8%[46.1 µM] | -9.5%
Cc1ccccc1Nc1nnc(-c2ccc(C)c(S(=O)(=O)NCC3CCCO3)c2)c2ccccc12 (stereo not drawn) | -4.7% | nt | -4.5%[46.1 µM] | 19.5% | nt | 1.8% | ? | nt
O=S(=O)(c1cccc2ccccc12)n1nnc2ccccc21 | 3.1% | -1.9% | 19.7% | 18.1% | -16.5% | -4.7% | 17.1% | 25.6%
Clc1ccccc1/C=C/c1nc(-c2ccccn2)no1 | nt | -3.0% | nt | 3.98µM* | -5.5% | nt | ? | ?
CCOc1ccc(NC(=O)CCC(=O)N2CC(C)Oc3ccc(C)cc32)cc1 (stereo not drawn) | -1.5% | nt | 13.3%[46.1 µM] | -17.6% | nt | 2.8% | 7.7%[46.1 µM] | nt
O=C(O)c1sc(Nc2ccccc2)nc1-c1ccccc1 | -2.6% | nt | 0.3%[46.1 µM] | -17.1% | nt | 3.5% | 8.2%[46.1 µM] | nt
Cc1ccc(Cl)c(NC(=O)COC(=O)CNS(=O)(=O)/C=C/c2ccccc2)c1Cl | -10.5% | 9.9% | 4.3% | -11.8% | -2.8% | ? | 11.9% | 5.4%
SMILES | Cruzain Triton | SARS PLpro yeast | Lassa entry inh | 2A StopGo | NS1 inh | Cruzain noTriton | MARV entry inh | RE007 growth inh
Cc1cc(-c2ccccc2)nc(SCc2ccc(C(=O)O)cc2)n1 | nt | -7.4% | nt | 12.1% | -34.5% | nt | nt | -11.7%
CCn1c(=O)cc(OCC(=O)NCCc2cccc(C)c2)c2ccccc21 | nt | -0.1% | -24.9%[46.1 µM] | -16.0% | nt | nt | ? | 2.5%
O=C(N/C(=C\c1ccco1)C(=O)N1CCC(O)CC1)c1ccccc1 | nt | 0.8% | nt | -3.7% | -0.2% | nt | 16.0%[46.1 µM] | -7.8%
Cc1ccc(-n2c(N)c(C(=O)Nc3c(C)n(C)n(-c4ccccc4)c3=O)c3nc4ccccc4nc32)cc1C | -8.3% | 14.1% | nt | nt | 27.0% | ? | nt | nt
CCc1cc2c(COC(=O)c3cccc(S(C)(=O)=O)c3)cc(=O)oc2cc1O | nt | -5.5% | 3.6%[46.1 µM] | ? | 5.6% | nt | -13.6%[46.1 µM] | 7.9%
Cn1c(=O)oc2cc(S(=O)(=O)Nc3cccc([N+](=O)[O-])c3)ccc21 | nt | -3.3% | 17.0% | 85.1%[activator] | 3.1% | nt | -1.3% | -5.1%
CN(C(=O)c1ccco1)C1(c2ccccc2Cl)CCCCC1=O (stereo not drawn) | 4.2% | 7.6% | 1.1% | -21.0% | 5.5% | 6.3% | 1.6% | 24.8%
COCCN(Cc1cccs1)S(=O)(=O)c1csc(C(N)=O)c1 | nt | -3.0% | nt | 8.6% | 0.4% | nt | nt | -2.7%
COc1ccc(CCNC(=O)COc2ccc(N(C)S(=O)(=O)c3ccc(Cl)cc3)cc2)cc1 | nt | -0.8% | ? | ? | -5.8% | nt | ? | 23.2%
Cc1ccc(S(=O)(=O)N2CCN(C(=O)COC(=O)/C=C/c3ccccc3[N+](=O)[O-])CC2)c(C)c1 | nt | -23.0% | 15.8% | -7.5% | nt | nt | 17.0%[46.1 µM] | 3.0%
O=S(=O)(c1ccc(S(=O)(=O)N2CCCC2)cc1)N1CCCCCC1 | 5.6% | -0.5% | -19.7% | nt | -1.2% | -17.7% | 15.5% | 8.4%
CCOC(=O)C1CCN(C(=O)C2CCN(c3nn4c(=O)cc(C)nc4s3)CC2)CC1 | nt | 3.0% | nt | -11.3% | 6.5% | nt | nt | 8.4%
COc1cccc(/C=C2/SC(=S)N(CC(=O)NNC(=O)c3ccccc3OC)C2=O)c1 | nt | 0.9% | nt | 17.5% | 18.0% | nt | 4.3%[46.1 µM] | 14.7%
COc1ccc(/C=C/C(=O)Nc2cc(-c3nc4ccccc4o3)ccc2OC)cc1 | -1.5% | nt | -11.1%[46.1 µM] | -23.5% | nt | 13.2% | nt | nt
Cc1cc(=O)oc2c(C)c(OCC(=O)N3CCN(C(=O)C4COc5ccccc5O4)CC3)ccc12 (stereo not drawn) | nt | 3.7% | nt | ? | 15.7% | nt | nt | 1.4%
COc1cccc(NC(=O)CN(c2ccc3c(c2)OCO3)S(C)(=O)=O)c1 | nt | 0.9% | -0.4% | 2.3% | -0.9% | nt | -18.3%[46.1 µM] | 4.0%
O=c1c2ccccc2nc(-c2cccs2)n1-c1ccccc1 | -1.0% | -0.3% | -8.3% | -25.8% | -0.5% | -6.8% | -3.9% | 8.7%
CCOc1ccc(S(=O)(=O)N(CC(=O)NCCSCc2ccc(C)cc2)c2ccccc2)cc1 | -0.8% | nt | -20.6%[46.1 µM] | -16.1% | nt | -1.1% | 10.4%[46.1 µM] | nt
Cc1cc(OCCCn2ccnc2)cc(C)c1Cl | -2.3% | -7.4% | -7.5% | -21.3% | -46.9% | -0.5% | -2.1% | 2.3%
COc1ccc(NC(=O)Nc2ccc(CC(=O)O)cc2)cc1 | nt | 1.4% | ? | 15.1% | 3.3% | nt | 2.9%[46.1 µM] | -3.5%
Cn1ccnc1SCC(=O)Nc1ccc2ccccc2c1 | 5.4% | -6.5% | ? | nt | -7.9% | 1.8% | ? | -4.2%
O=C(CN1CCSCC1)N/N=C/c1cccc(Cl)c1 | nt | -1.4% | 9.0% | 20.5% | nt | nt | 2.7% | -4.7%
O=C(Nc1cccc(C(F)(F)F)c1)Nc1nnc(N2CCCCCC2)s1 | -5.0% | nt | -28.0%[46.1 µM] | -22.8% | nt | 20.4% | 8.4%[46.1 µM] | nt
COc1cc(C(=O)Nc2c(C(=O)O)[nH]c3ccc(Br)cc23)cc(OC)c1OC | nt | 0.0% | nt | -5.9% | 8.9% | nt | nt | -0.1%
COC(=O)c1c(NC(C)=O)sc2c1CCCCC2 | -5.1% | -8.9% | 8.1% | -17.1% | -8.1% | -0.6% | 8.2% | -13.7%
Clc1ccc(-c2ccc(/C=N/Nc3nncc(-c4ccccc4)n3)o2)cc1 | 0.0% | 4.5% | 4.7% | ? | ? | ? | -4.7%[46.1 µM] | -2.5%
Cc1ccc(NC(=O)[C@@H](c2ccccc2)N2Cc3ccccc3C2=O)cc1 | -2.7% | nt | -4.4%[46.1 µM] | 11.9% | nt | 11.8% | -4.2%[46.1 µM] | nt
COc1ccc(C(O)P(=O)(OC(C)C)OC(C)C)c(OC)c1 (stereo not drawn) | nt | -2.4% | 2.4% | -5.8% | -5.7% | nt | ? | -0.2%
